VACV mCherry inh – inhibitors of vaccinia virus infection (mCherry reporter signal) | Vaccinia virus mCherry reporter infection, fluorescence; about a quarter of the inactives have no number | 0.63% of 310,000 active | Potency, µM (highest dose often 36.5 µM), without a hit: top-dose activity change, negative = inhibition, hits mostly inhibitors; active = well fitted inhibition curve with a large enough effect; inconclusive = small, poorly fitted or top-dose-only effect; inactive = no such curve, though single readings can be large or run the other way; tested in A549 cells; note: nearly all actives have a fitted effect of over 35% in size; inactives centre near -10
Vaccinia Venus – vaccinia inhibition (Venus reporter) | Vaccinia virus Venus reporter expression, fluorescence | Potency, µM (titrated, usually from 36.5 µM), for the others: at the highest dose activity change, negative = inhibition, most hits filed as inhibitors | 0.46% of 330,000 active; active means well fitted inhibition curve with a large enough effect; inconclusive means small, poorly fitted or top-dose-only effect; inactive means no such curve, though single readings can be large or run the other way; tested in A549 cells; note: nearly all actives have a fitted effect of over 30% in size; inactives centre near -10
* hit, by the source's call; [ ] = dose if it differs, or a comment. % is set by controls: 0 for no effect and ±100 for the full control effect; potency is the fitted concentration of half-maximal effect.

CC1CCN(C(=S)c2ccc([N+](=O)[O-])cc2)CC1 was read as VACV mCherry inh -5% and Vaccinia Venus -6%.
Cc1ccsc1C(=O)NNC(=O)c1ccccc1F was read as VACV mCherry inh inactive and Vaccinia Venus -13%.
COc1ccc(OCC(O)CN2CCN(Cc3ccc4c(c3)OCO4)CC2)cc1 (stereo not drawn) was read as VACV mCherry inh -15% and Vaccinia Venus -11%.
O=Cc1cccc(OCc2cccc3ccccc23)c1 was read as VACV mCherry inh -12% and Vaccinia Venus -2%.
CCN(CC)CCNC(C(=O)Nc1ccc([N+](=O)[O-])cc1Br)c1ccccc1 (stereo not drawn) was read as VACV mCherry inh -20% and Vaccinia Venus 1%.
`COc1ccc([C@@H](NC(=O)OC(C)(C)C)C(=O)OC(C)(C)C)cc1` gave VACV mCherry inh -9% and Vaccinia Venus -9%.
For C[C@H](O)[C@@H]1C(=O)N2CCc3ccc(-c4ccccc4)cc3[C@@H]2C[C@@H]1N(C)C(=O)c1cccnc1 the results were VACV mCherry inh 0% and Vaccinia Venus -7%.
`Cc1cccc2c(=O)c(C(=O)NCc3ccc(F)cc3)c[nH]c12` gave VACV mCherry inh inconclusive and Vaccinia Venus -22%.
`COC(=O)c1ccsc1NC(=O)CS(=O)(=O)c1ccccc1` gave VACV mCherry inh -13% and Vaccinia Venus -1%.
Screening O=C(CCS(=O)CCC(=O)NCc1ccccc1)NCc1ccccc1 returned VACV mCherry inh -9% and Vaccinia Venus 11%.
`CCOC(=O)C[C@@H]1OC[C@H](C(C)C)N1S(=O)(=O)c1ccc(C)cc1` gave VACV mCherry inh -16% and Vaccinia Venus -5%.
`CC1(C)CN=C(N(C(=O)Nc2ccccc2)c2ccccc2F)S1` gave VACV mCherry inh inactive and Vaccinia Venus -6%.

Four compounds drawn at random from those above:
`CCOC(=O)C[C@@H]1OC[C@H](C(C)C)N1S(=O)(=O)c1ccc(C)cc1` gave VACV mCherry inh -16% and Vaccinia Venus -5%.
CC1CCN(C(=S)c2ccc([N+](=O)[O-])cc2)CC1 was read as VACV mCherry inh -5% and Vaccinia Venus -6%.
`CC1(C)CN=C(N(C(=O)Nc2ccccc2)c2ccccc2F)S1` gave VACV mCherry inh inactive and Vaccinia Venus -6%.
CCN(CC)CCNC(C(=O)Nc1ccc([N+](=O)[O-])cc1Br)c1ccccc1 (stereo not drawn) was read as VACV mCherry inh -20% and Vaccinia Venus 1%.

Further compounds follow:
For COc1cc2ccccc2cc1C(=O)Nc1cccc(-c2nc3cc(C)c(C)cc3o2)c1C the results were VACV mCherry inh -12% and Vaccinia Venus -5%.
CCc1ccc(NC(=O)C2CCN(C(=O)[C@@H]3Cc4ccccc4CN3)CC2)cc1 was read as VACV mCherry inh -1% and Vaccinia Venus -27%.
COc1ccc(S(=O)(=O)NCC(c2ccco2)N2CCc3ccccc32)cc1 (stereo not drawn) was read as VACV mCherry inh -22% and Vaccinia Venus -9%.
Screening O=c1oc2ccccc2n1Cc1ccccc1Cl returned VACV mCherry inh -25% and Vaccinia Venus -3%.
`COc1ccc(Cc2nc3ccccc3n2Cc2ccccc2F)cc1` gave VACV mCherry inh -9% and Vaccinia Venus -4%.
`CC(C)C1CC(CCN)(Cc2ccccc2)CCO1` (stereo not drawn) gave VACV mCherry inh -9% and Vaccinia Venus -17%.
N/C(Cc1cccs1)=N\OC(=O)COc1ccc(Br)cc1Cl was read as VACV mCherry inh -21% and Vaccinia Venus 0%.
`COc1ccc(/C=C/C(=O)N2CCC(c3ccccc3)C2)cc1` (stereo not drawn) gave VACV mCherry inh -9% and Vaccinia Venus -29%.
Cc1ccc(S(=O)(=O)N2C[C@H]3[C@H]4C(=O)N(Cc5ccccc5)C(=O)[C@H]4CC(=O)[C@H]3[C@@H]2c2ccccc2Cl)cc1 was read as VACV mCherry inh inactive and Vaccinia Venus 0%.
For CCc1ccc(S(=O)(=O)Nc2nccs2)cc1 the results were VACV mCherry inh -1% and Vaccinia Venus 1%.
CSc1cccc(NC(=O)COc2ccccc2C)c1 was read as VACV mCherry inh -6% and Vaccinia Venus -3%.
For CCOC(=O)CNC1CC(=O)N(c2cccc(Cl)c2)C1=O (stereo not drawn) the results were VACV mCherry inh -10% and Vaccinia Venus 1%.
C=CCC[C@H](CCCCC)OC(=O)/C=C/[C@@H](O)[C@H](O)C[C@@H](O)CC=C was read as VACV mCherry inh -10% and Vaccinia Venus -1%.
COc1ccc(NC(=O)Cn2ncc3c(C)n(Cc4cccc(Cl)c4)c(C)c3c2=O)cc1 was read as VACV mCherry inh -16% and Vaccinia Venus -8%.
`Cc1csc(NC(=O)C(NS(=O)(=O)c2ccc(Br)s2)c2ccccc2)n1` (stereo not drawn) gave Vaccinia Venus -16%.
`CC1=C(C)CC(C(=O)NCc2c(F)cccc2Cl)C(C(=O)O)C1` (stereo not drawn) gave VACV mCherry inh -20% and Vaccinia Venus -14%.
For Cc1cccc(NC(=O)Nc2ccc(Oc3c(F)c(F)c(F)c(F)c3F)cc2)c1 the results were VACV mCherry inh inactive and Vaccinia Venus -7%.
`Cc1cc(C)cc(Nc2nnc(-n3nc(C)cc3C)c3ccccc23)c1` gave VACV mCherry inh -11% and Vaccinia Venus -4%.
For O=C(NCc1ccco1)/C(=C\c1cccs1)NC(=O)c1ccsc1 the results were VACV mCherry inh -12% and Vaccinia Venus -15%.
COC(=O)c1ccc2nc(-c3cccc(Cl)c3)c(CC3CCCCC3)n2c1 was read as VACV mCherry inh -3% and Vaccinia Venus -1%.
Screening Cc1ccc(NC(=O)CSc2n[nH]c(-c3ccc(F)cc3)n2)cc1F returned VACV mCherry inh -11% and Vaccinia Venus -7%.
For Cc1c(C)n(C)c2ccc(C(=O)NCCCN3CCN(c4ccccc4F)CC3)cc12 the results were VACV mCherry inh -19% and Vaccinia Venus -26%.
`COc1ccc(NC(=O)CCSc2cc(C)c3ccccc3n2)cc1` gave Vaccinia Venus -14%.
`Cc1c(C(=O)N2CCN(c3ncccn3)CC2)sc2nc3n(c(=O)c12)CCCC3` gave VACV mCherry inh 1% and Vaccinia Venus -5%.

The closing 2 records of the section above are carried over, then new ones follow:
`COc1ccc(NC(=O)CCSc2cc(C)c3ccccc3n2)cc1` gave Vaccinia Venus -14%.
`Cc1c(C(=O)N2CCN(c3ncccn3)CC2)sc2nc3n(c(=O)c12)CCCC3` gave VACV mCherry inh 1% and Vaccinia Venus -5%.
Screening CC(C)N1CCN(c2ccncc2S(=O)(=O)N2CCOCC2)CC1 returned VACV mCherry inh -8% and Vaccinia Venus -10%.
For O=C(NCCCN1CCOCC1)C(=O)NCC1OCCN1S(=O)(=O)c1ccc(F)cc1 (stereo not drawn) the results were VACV mCherry inh -9% and Vaccinia Venus -9%.
For Fc1ccc(C2N3CCCN23)cc1 (stereo not drawn) the results were VACV mCherry inh -11% and Vaccinia Venus -12%.
`COC(=O)CCSCC(=O)Nc1ccc(S(=O)(=O)N2CCOCC2)cc1OC` gave VACV mCherry inh -8% and Vaccinia Venus -6%.
Screening Cc1cc(Cl)ccc1OCCCC(=O)N1CCN(C)CC1 returned VACV mCherry inh -18% and Vaccinia Venus -12%.
`CCCCN1C(=O)C(CC(=O)NCCc2ccccn2)CC(C(=O)N2CCOCC2)=C1C` (stereo not drawn) gave VACV mCherry inh inactive and Vaccinia Venus 0%.
CC(C)OC(=O)C1CC(C)(O)C(=O)C(C(=O)OC(C)C)C1c1ccc([N+](=O)[O-])cc1 (stereo not drawn) was read as VACV mCherry inh inconclusive and Vaccinia Venus 2%.
`COc1ccc(C)cc1S(=O)(=O)N1CCCC(C(=O)NCC2CCCO2)C1` (stereo not drawn) gave VACV mCherry inh inactive and Vaccinia Venus -21%.
`CCOC(=O)N(C)C[C@@H]1OCc2ccccc2-c2c(n(C)c3ccccc23)C(=O)N([C@H](C)CO)C[C@H]1C` gave VACV mCherry inh inactive and Vaccinia Venus -14%.
For O=C(CCc1nnc(-c2ccccc2)o1)c1ccc(Cl)cc1 the results were VACV mCherry inh -8% and Vaccinia Venus -10%.
COc1ccc(NC(=O)c2cc3nc(-c4ccc(Cl)c(Cl)c4)cc(C(F)(F)F)n3n2)c(OC)c1 was read as VACV mCherry inh -8% and Vaccinia Venus -6%.
`c1ccc(Cn2c(Sc3nnnn3-c3ccccc3)nnc2-c2ccccc2)cc1` gave VACV mCherry inh inactive and Vaccinia Venus -6%.
`O=C1/C(=C\c2ccsc2)N2CCC1CC2` gave VACV mCherry inh inactive[7.34 µM] and Vaccinia Venus -7%[7.34 µM].
`COc1cc(Cc2nc3ccccc3n2C(C)c2nc3ccccc3[nH]2)cc(OC)c1` (stereo not drawn) gave VACV mCherry inh 0% and Vaccinia Venus 8%.
`O=C(NNC(=O)c1ccc[nH]1)Nc1cccc(C(F)(F)F)c1` gave VACV mCherry inh -4% and Vaccinia Venus 10%.
Screening COc1ccc(CNC(=S)Nc2ccc3nc(N4CCN(C)CC4)cc(C)c3c2)cc1 returned VACV mCherry inh inconclusive and Vaccinia Venus -10%.
Screening O=C(NCc1nc2ccccc2[nH]1)C1=C[C@@H](c2ccccc2)C[C@@H](OCCCCO)O1 returned VACV mCherry inh -10% and Vaccinia Venus -11%.
`Cc1cc(C)cc(C(=O)NC(CC(N)=O)c2ccc(NCCN3CCCC3)c([N+](=O)[O-])c2)c1` (stereo not drawn) gave VACV mCherry inh inactive and Vaccinia Venus -6%.
O=C(CCS(=O)(=O)c1ccc(Cl)cc1)NCCC1=CCCCC1 was read as VACV mCherry inh -18% and Vaccinia Venus -10%.
Screening CC(=O)Nc1ccccc1OCC(=O)NCCc1ccc(Cl)cc1Cl returned VACV mCherry inh -6% and Vaccinia Venus -21%.
For CCc1ccc(NC(=O)CN2CCSc3ccc(S(=O)(=O)N4CCCC4)cc32)cc1 the results were VACV mCherry inh -15% and Vaccinia Venus -11%.
O=C(Cn1nc(Cl)nc1Cl)Nc1ccccc1 was read as VACV mCherry inh -1% and Vaccinia Venus -1%.
O=S(=O)(NCC(c1cccnc1)N1CCN(c2ccc(F)cc2)CC1)c1ccc(F)cc1 (stereo not drawn) was read as VACV mCherry inh inactive and Vaccinia Venus -3%.
Screening COc1ccc(NC(=O)Cn2c(NCC(C)O)nc3ccccc32)cc1Cl (stereo not drawn) returned VACV mCherry inh inactive and Vaccinia Venus -9%.
COCCCNC(=O)c1[nH]c2ccccc2c1Sc1ccc(C)cc1 was read as VACV mCherry inh -9% and Vaccinia Venus -7%.
Screening CC(CNC(=O)Cn1ccc(N)nc1=O)c1ccccc1 (stereo not drawn) returned VACV mCherry inh -11% and Vaccinia Venus 1%.
For Cc1ccc2nc(SCn3nnc4ccccc4c3=O)[nH]c2c1 the results were VACV mCherry inh -13% and Vaccinia Venus -13%.
Screening CS(=O)(=O)N1Cc2ccccc2CC1C(=O)OCC(=O)NCc1ccccc1 (stereo not drawn) returned VACV mCherry inh -15% and Vaccinia Venus -6%.
`C=CCC(C#Cc1ccc(C)cc1)N(CC)CC` (stereo not drawn) gave Vaccinia Venus -14%.
`O=C(Cn1nnc(-c2cccs2)n1)NCc1ccco1` gave VACV mCherry inh inactive and Vaccinia Venus -6%.
CC(C)C1C(=O)Nc2ccc(S(=O)(=O)NCCc3ccc(Cl)cc3)cc21 (stereo not drawn) was read as VACV mCherry inh -17% and Vaccinia Venus -14%.
`CCCCNC(C(=O)Nc1cccc(S(=O)(=O)N2CCOCC2)c1)c1ccccc1` (stereo not drawn) gave VACV mCherry inh -16% and Vaccinia Venus -8%.
For O=C(COc1ccccc1F)OCc1cc(=O)n2nc(C3CC3)sc2n1 the results were VACV mCherry inh 1% and Vaccinia Venus 6%.
Screening COc1ccc(CCNc2oc(COc3ccc(Br)cc3)nc2C#N)cc1OC returned VACV mCherry inh -7% and Vaccinia Venus -3%.
Cc1ccc(N2CC(C(=O)Nc3ccc4c(c3)OCCO4)CC2=O)cc1 (stereo not drawn) was read as VACV mCherry inh -10% and Vaccinia Venus -20%.
`COc1ccc(CC(=O)N2CC3(C)CC2CC(C)(C)C3)cc1OC` (stereo not drawn) gave Vaccinia Venus -11%.
`COC1=CC(=Cc2c(N)n3nc(CC(=O)N4CCOCC4)sc3nc2=O)C=C(OC)C1=O` gave VACV mCherry inh -9% and Vaccinia Venus 185%[activator].
CCCn1c(=O)c(C(=O)Nc2ccccc2C(=O)OC)c(O)c2ccccc21 was read as Vaccinia Venus -12%.
CCN1C(=O)/C(=C\c2ccc(F)cc2)N=C1SCC(=O)NCc1ccco1 was read as VACV mCherry inh -5% and Vaccinia Venus 0%.

Gathered by group: the entries above with a CF3 group.
COc1ccc(NC(=O)c2cc3nc(-c4ccc(Cl)c(Cl)c4)cc(C(F)(F)F)n3n2)c(OC)c1 was read as VACV mCherry inh -8% and Vaccinia Venus -6%.
`O=C(NNC(=O)c1ccc[nH]1)Nc1cccc(C(F)(F)F)c1` gave VACV mCherry inh -4% and Vaccinia Venus 10%.

An excerpt from the list above:
Cc1ccc(N2CC(C(=O)Nc3ccc4c(c3)OCCO4)CC2=O)cc1 (stereo not drawn) was read as VACV mCherry inh -10% and Vaccinia Venus -20%.
`COc1ccc(CC(=O)N2CC3(C)CC2CC(C)(C)C3)cc1OC` (stereo not drawn) gave Vaccinia Venus -11%.
`COC1=CC(=Cc2c(N)n3nc(CC(=O)N4CCOCC4)sc3nc2=O)C=C(OC)C1=O` gave VACV mCherry inh -9% and Vaccinia Venus 185%[activator].
CCCn1c(=O)c(C(=O)Nc2ccccc2C(=O)OC)c(O)c2ccccc21 was read as Vaccinia Venus -12%.
CCN1C(=O)/C(=C\c2ccc(F)cc2)N=C1SCC(=O)NCc1ccco1 was read as VACV mCherry inh -5% and Vaccinia Venus 0%.

Assay outcomes (PubChem BioAssay)
